D2 ag = human D2 receptor agonism in beta-arrestin assay. DiscoveRx PathHunter D2 beta-arrestin, luminescence, 90 min; 100% = 57 uM dopamine signal. activation, % (concentration not given with the values). hit rate 0.084% among 360,000; in the data active = activation above about 40%; inconclusive = about 15% to 40%; inactive = below about 15%; further: compound concentration not given in the record; the text of the record calls up to 30% inactive
Target sequence (P14416 whole entry, looked up): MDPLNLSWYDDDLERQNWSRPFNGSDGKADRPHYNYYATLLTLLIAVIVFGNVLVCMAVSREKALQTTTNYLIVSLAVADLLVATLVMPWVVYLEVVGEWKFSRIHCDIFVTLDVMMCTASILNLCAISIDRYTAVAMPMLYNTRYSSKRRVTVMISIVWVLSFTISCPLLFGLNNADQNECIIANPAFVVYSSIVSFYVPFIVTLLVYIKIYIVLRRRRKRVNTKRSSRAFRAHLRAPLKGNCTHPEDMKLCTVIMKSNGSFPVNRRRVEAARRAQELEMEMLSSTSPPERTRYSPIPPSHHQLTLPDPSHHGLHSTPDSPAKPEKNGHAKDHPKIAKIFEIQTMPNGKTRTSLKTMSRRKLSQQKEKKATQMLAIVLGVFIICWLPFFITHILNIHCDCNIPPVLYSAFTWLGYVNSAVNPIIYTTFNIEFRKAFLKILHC
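Agonist mode: compounds alone added to overnight-plated D2 PathHunter cells for 90 min at 37 C, with 57 uM final dopamine (EC100) defining full response. Beta-arrestin recruitment detected by chemiluminescent reagent, read after 1 h at ambient temperature.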
Six1-Eya2 inh = inhibitors of human Six1/Eya2 interaction | activity change, % (concentration not given with the values) | AlphaScreen GST-Six1/His-Eya2 binding, biochemical; hits give low values; control for the full effect not named in the record | Q15475+O00167 | hit rate 0.56% among 360,000; in the data active = activity change below about -65%; inconclusive = about -30% to -65%; inactive = above about -30%; further: on the % scale 0 is the no-effect control and ±100 the full control effect
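Homogeneous AlphaScreen proximity assay pairing GST-Six1 with His-tagged Eya2 (added as 5X mix: 250 nM and 500 nM) in 50 mM Tris pH 8.0, 300 mM NaCl, 1 mM TCEP. Glutathione donor and nickel acceptor beads; 1 h, 37 °C, dark.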
TRPML1 inh = human mucolipin-1 channel inhibition; Q9GZU1; TRPML1-inducible cells, Ca2+ dye fluorescence, FDSS; hits give low values; inhibition of EC80 agonist-evoked calcium signal; activity change, negative = inhibition, % (test concentration not listed); hit rate 0.02% among 390,000; AID 624415; in the data active means activity change below about -50%; inconclusive means about -30% to -50%; inactive means above about -30%;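 further: stimulus is agonist 54-4 at its EC80 concentration; on the % scale 0 is the no-effect control and ±100 the full control effect; compound concentration not given in the record; the text of the record puts the active cut at -80%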
Target sequence (Q9GZU1 whole entry, looked up): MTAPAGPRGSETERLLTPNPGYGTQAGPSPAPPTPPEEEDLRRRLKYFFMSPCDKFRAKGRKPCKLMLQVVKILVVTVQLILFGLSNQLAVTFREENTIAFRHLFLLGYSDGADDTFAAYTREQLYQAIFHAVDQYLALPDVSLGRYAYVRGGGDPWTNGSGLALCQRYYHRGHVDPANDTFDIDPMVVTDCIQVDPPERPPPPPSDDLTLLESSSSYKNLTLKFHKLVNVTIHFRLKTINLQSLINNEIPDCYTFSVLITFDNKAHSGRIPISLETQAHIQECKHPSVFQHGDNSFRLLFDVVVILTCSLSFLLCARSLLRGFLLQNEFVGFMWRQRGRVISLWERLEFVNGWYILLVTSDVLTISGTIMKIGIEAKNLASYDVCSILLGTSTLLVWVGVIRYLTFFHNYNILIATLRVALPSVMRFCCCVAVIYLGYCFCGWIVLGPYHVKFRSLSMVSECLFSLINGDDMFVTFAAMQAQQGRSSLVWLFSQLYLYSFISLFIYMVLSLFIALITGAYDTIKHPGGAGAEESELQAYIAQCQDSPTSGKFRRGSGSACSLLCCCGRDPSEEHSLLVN
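Calcium fluorescence in TRPML1-DL cells induced overnight with Tet: a 110 s read after compound pin addition, then a 110 s antagonist read after challenge with 54-4 at 4 uM final (EC80).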
PINK1 expr mod = PINK1 expression modulation; hit rate 0.2% among 410,000; Potency, µM (titrated, usually from 76.6 µM), inactives show at the highest dose activation (PINK1 increase), usual class: activators; PINK1 immunofluorescence, high-content cytometry, 24 h; active = well fitted activation curve with a large enough effect; inconclusive = small, poorly fitted or top-dose-only effect; inactive = flat fitted curve, though single readings scatter; cell line not stated here;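 further: potency means the concentration at half of the fitted maximal effect; % of control where 0% means no effect; nearly all actives have a fitted effect of over 65% in size; a mitochondrial uncoupler was the plate control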
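A stable cell line was treated with compounds at 5 concentrations for 24 hours, with CCCP as control. PINK1 levels and mitochondrial localization were measured by immunofluorescence with mitochondrial, cell and nuclear markers after fixation, read by laser-scanning cytometry.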
TRPML1 agonist = human mucolipin-1 channel agonism; activation, % (test concentration not listed); TRPML1-expressing cells, Ca2+ dye fluorescence, FDSS; host cell line not named in the record; reference of the full effect not given here; AID 624414; Q9GZU1; hit rate 0.12% among 410,000; in the data active = activation above about 50%; inconclusive = about 30% to 50%; inactive = below about 30%; further: 0% is about no effect; the text of the record puts the active cut at 80%
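Calcium fluorescence on an FDSS kinetic reader gave the read-out. Tet-induced TRPML1-DL cells were plated overnight, dye-loaded (Ca8 with quencher, 45-90 min, room temperature, dark), then read 110 s after compound addition, and again 110 s after 4uM final 54-4 (EC80).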
D2 PAM = human D2 receptor positive allosteric modulation; DiscoveRx D2 beta-arrestin cells, luminescence, 90 min; 100% = 57 uM dopamine signal; potentiation, % (no concentration beside the values); hit rate 0.23% among 360,000; AID 624464; active = potentiation of 50% or more; inconclusive = 30% to 50%; inactive = 30% or less;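 further: compound concentration not given in the record; tested on top of an EC20 dose of dopamine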
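PathHunter beta-arrestin assay in DiscoveRx D2 cells. Compounds were added with an EC20 of dopamine (50 nM final) for 90 min at 37 deg C. Luminescence was read 1 h after detection reagent, with 57 uM dopamine as the EC100 control.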
The depositor's hits bear a star; ? = inconclusive; . = not tested or not shown; & = joins results of further samples; [ ] = another dose, or the depositor's remark. Not a hit list, and some 1% of all compounds hit somewhere here.

SMILES	D2 ag	Six1-Eya2 inh	TRPML1 inh	PINK1 expr mod	TRPML1 agonist	D2 PAM
O=C(CSc1nnc(-c2ccccc2Br)o1)N1CCOCC1	-4.7	3.0	-3.4	0.2%	0.5	-3.3
Cc1ccc(CSCCNC(=O)/C=C/c2ccc(Cl)cc2)cc1	-1.1	2.7	13.7	1.2%	-0.3	-1.5
O=C(NCc1ccccc1)c1cccc2c1C(=O)c1ccc(/C=C/c3ccccc3)cc1S2(=O)=O	-2.2	1.5	-2.2	8.3%	7.2	-0.5
Cc1noc(C)c1-c1ccc(C(=O)NCC2CC2)c2occc12	-2.7	-24.0	.	9.8%	-0.9	-4.7
COC(=O)c1ccc2c(c1)N(Cc1cc(C)ccc1C)C(=O)c1ccccc1S2	.	.	12.9	-0.1%	3.9	.
CC(C)N(C(=O)[C@H]1CC(CC(=O)NCC23CC4CC(CC(C4)C2)C3)C(=O)N2CCc3c([nH]c4ccccc34)[C@]12C)C(C)C (some centres not stated)	-0.3	-3.7	-3.2	18.3%	0.3	.
CC[n+]1ccccc1/C=C/c1ccc(N(C)C)cc1	-4.7	1.0	-3.2	?	4.8	-7.4
c1ccc(CSc2ncnc3c2cnn3-c2ccccc2)cc1	1.0	10.9	-2.4	2.1%	0.1	-11.4
CC(C)C(=O)Nc1ccc(S(=O)(=O)Nc2ccccn2)cc1	3.1	2.9	-19.1	-1.9%	0.0	-4.8
CN1CCn2cnc(C(=O)N[C@@H](Cc3ccccc3)C(=O)OC(C)(C)C)c2C1=O	-3.4	0.2	.	1.0%	.	.
O=C(Nc1cccc(Cl)c1)N(Cc1nc2ccccc2c(=O)[nH]1)C1CCCC1	-0.1	-2.4	-2.8	1.8%	6.6	-10.8
COc1cc(C(=O)OCC(=O)N(CC(C)C)C2CCS(=O)(=O)C2)ccc1OCC(C)C (configuration not stated)	-2.9	-2.7	41.4	1.2%	-0.1	-3.4
COc1ccc(C2C(C(=O)N3CCN(c4ccccc4F)CC3)c3ccccc3C(=O)N2C)cc1 (configuration not stated)	-3.2	-0.4	6.6	1.6%	5.0	-15.8
Cc1c(-c2ccc(F)cc2)[n+](=O)c(-c2ccc(F)cc2)c(C)n1[O-]	-2.4	6.5	-3.9	2.6%	-0.6	8.0
CCC(C)(C)n1nnnc1C(c1ccc(O)c(OC)c1)N1CCc2ccccc2C1 (configuration not stated)	-1.2	0.2	15.7	-5.6%[38.3 µM]	-0.1	-9.6
Cc1cc(C)c(S(=O)(=O)N2CCCCC2CCNC(=O)C(=O)NCCN2CCOCC2)c(C)c1 (configuration not stated)	-2.4	-0.1	2.1	-0.7%	-0.1	-6.0
CC(=O)c1sc(NC(=O)CN2C(=O)CCC2=O)nc1C	-2.5	-5.8	-1.1	0.1%	-0.1	-12.1
Cc1ccccc1NC(=O)c1cccc(S(=O)(=O)Nc2cccc(C(=O)O)c2)c1	1.8	-15.0	-19.0	1.5%	0.2	-5.2
COc1ccc(OC)c(-c2cc(C(=O)N3CCOCC3)no2)c1	-2.9	8.3	1.9	7.6%	0.4	-7.6
O=[N+]([O-])c1c(NCCO)cc(N2CCCCC2)c2nonc12	1.9	-6.6	20.4	2.6%	2.4	-6.0
CC(NS(=O)(=O)c1ccc(Br)cc1)C(N)=O (configuration not stated)	0.1	3.1	0.9	4.5%[38.3 µM]	0.7	-8.9
O=C(CSCC(=O)OCC(=O)c1ccc(Br)cc1)Nc1ccc(Br)cc1	-5.6	-0.1	-0.3	-4.6%	1.0	-16.0
Cn1cccc1C(=O)N/N=C/c1c(Cl)cccc1Cl	-2.4	-8.1	18.2	-0.3%	-1.6	-8.9
CC(=O)c1c(C)n(-c2ccccc2)c2ccc(OCC(N)=O)cc12	-1.6	0.9	-2.1	-0.2%	-0.8	-2.2
COc1ccc(CCNC(=O)CCc2c(C)c3cc4c(C)coc4cc3oc2=O)cc1	.	.	-3.6	0.5%	-0.4	.
COc1ccc(Oc2nc3c(c(=O)n(C)c(=O)n3C)n2Cc2ccccc2Cl)cc1	.	.	36.1	1.4%	1.3	.
CCCCC(=O)NC1(C(F)(F)F)C(=O)Nc2c1c(=O)[nH]c(=O)n2-c1ccc(C)c(C)c1 (configuration not stated)	.	.	-8.2	1.5%	-0.3	.
COc1cccc(OC)c1C(=O)Nc1ccnn1C	1.0	3.7	19.9	1.8%	1.4	-5.7
O=C(NCCN1CCN(c2ccccc2)CC1)C1(S(=O)(=O)c2ccc(Cl)cc2)CC1	13.8	-0.7	9.0	-0.8%	-0.4	12.4
COc1ccc(N(CC(=O)Nc2ccc(S(=O)(=O)N3CCCC3)cc2)S(C)(=O)=O)cc1OC	-1.7	-2.0	-0.4	2.2%	0.7	-6.1

Reprinted at random: 3 compounds from above
SMILES	D2 ag	Six1-Eya2 inh	TRPML1 inh	PINK1 expr mod	TRPML1 agonist	D2 PAM
CCCCC(=O)NC1(C(F)(F)F)C(=O)Nc2c1c(=O)[nH]c(=O)n2-c1ccc(C)c(C)c1 (configuration not stated)	.	.	-8.2	1.5%	-0.3	.
CC(=O)c1c(C)n(-c2ccccc2)c2ccc(OCC(N)=O)cc12	-1.6	0.9	-2.1	-0.2%	-0.8	-2.2
O=C(CSCC(=O)OCC(=O)c1ccc(Br)cc1)Nc1ccc(Br)cc1	-5.6	-0.1	-0.3	-4.6%	1.0	-16.0

Later entries:
SMILES	D2 ag	Six1-Eya2 inh	TRPML1 inh	PINK1 expr mod	TRPML1 agonist	D2 PAM
NNC(=O)c1cnn(-c2ccccc2)c1-n1cccc1	-6.2	2.3	7.0	5.2%	-1.2	-4.9
COc1cc(S(=O)(=O)Nc2ccc(C)cc2)ccc1NC(=O)c1ccncc1	1.7	-7.5	0.4	-1.8%	0.5	-7.8
CCOC(=O)N1CCN(C(=O)c2ccc(N3CC4CC(C3)c3cccc(=O)n3C4)c(NC(=O)c3ccc(F)cc3)c2)CC1 (configuration not stated)	-2.6	1.4	-13.7	-0.2%	-0.6	-9.5
COc1ccc(NC(=O)N(C)C[C@@H]2Oc3ncc(Br)cc3C(=O)N([C@@H](C)CO)C[C@@H]2C)cc1	-6.4	2.2	5.9	0.0%	0.0	-1.9
CCOc1cc(C2NC(=O)NC(O)(C(F)(F)F)C2C(=O)c2ccc(Cl)cc2)ccc1O (configuration not stated)	3.9	3.4	1.6	.	0.3	-3.3
CCc1ccc(OC)c(-c2csc(N)n2)c1	-3.7	-14.3	-9.4	1.9%	0.2	-4.5
COc1ccc(/C=N/NC(=O)c2ccncc2)cc1CN1CCCc2ccccc21	-1.8	-8.8	17.1	7.6%	0.3	-2.7
COc1ccc(NC(=O)CNS(=O)(=O)c2ccc3nc(C)sc3c2)c(OC)c1	-1.0	2.7	-6.2	0.0%	-0.8	6.1
O=C(c1ccco1)N1CCN(c2ncnc3c2[nH]c2ccc(Br)cc23)CC1	1.9	-19.1	43.8	-1.2%	-0.3	8.9
O=C(Cn1c(C2CC2)nc2ccccc2c1=O)Nc1ccc(Br)cc1	5.4	3.6	5.9	-2.9%	2.1	4.1
COc1ccc(NC2c3ccccc3C(=O)N2Cc2ccco2)cc1OC (configuration not stated)	-4.5	-11.4	11.2	2.0%	-0.3	-0.2
O=C(Nc1cc(-c2ccccc2)sc1C(=O)O)c1cccc(F)c1	-0.5	0.5	14.8&16.7	0.4%&-1.0%	0.9&1.3	-31.7
COc1ccc(C(C(=O)NC2CCCCC2)N(Cc2ccco2)C(=O)c2snc(C(N)=O)c2N)cc1 (configuration not stated)	-3.6	0.0	2.6	-1.2%	0.9	13.4
Cc1cc(C)cc(Nc2cc(C)nc3nc(-c4ccco4)nn23)c1	.	.	10.6	1.5%	2.1	.
CCC(NC(=O)CSc1nnnn1C1CC1)c1ccc(Br)cc1 (configuration not stated)	-5.2	1.1	-5.5	2.2%	1.6	-3.5
O=C(c1ccccc1)c1ccc(C(=O)N2CCOCC2)cc1	-1.3	4.0	-5.2	0.3%	-0.3	2.2
CC(=O)Nc1ccc(S(=O)(=O)N2CCN(C(=O)Cc3ccccc3)CC2)cc1	1.5	-6.3	-13.6	-1.4%	0.5	-3.4
Nc1[nH]c(=O)[nH]c(=O)c1N=Nc1cccc(Cl)c1	-3.9	3.6	-3.5	-0.8%	4.2	-3.0
CCC1CCc2sc(C(=O)N3CCN(c4ccccn4)CC3)cc2C1 (configuration not stated)	2.7	-7.6	-6.8	-1.2%	0.6	17.5
CC(=O)CC(C)(C)NC(C)=S	-1.8	8.6	5.3	-0.1%	0.1	-6.6
CS(=O)(=O)c1cccc(C(=O)Nc2ccc3c(c2)OCCCO3)c1	-0.3	-1.4	1.0	-0.2%	0.4	-7.9
COc1cccc(NC(=O)CN(C)CC(=O)Nc2ccc(C)c(S(=O)(=O)N3CCOCC3)c2)c1	-0.2	-7.4	-2.4	2.8%	3.9	-10.5
NNC(=O)C12CC3CC(C1)CC(n1ncnn1)(C3)C2	4.0	1.0	-0.1	0.6%	0.3	-3.0
O=C(Oc1ccc(-c2nnco2)cc1)c1ccc(Br)o1	-3.8	-8.1	-17.6	-1.6%	-0.1	-3.2
O=C1SC(c2ccccc2)=C/C1=C\N1CCCCC1	-1.0	-15.4	-0.8	2.9%[38.3 µM]	-0.8	-9.5
Cc1ccc(C(=O)CCC(=O)OCC(=O)Nc2ccc3[nH]c(=O)[nH]c3c2)cc1	3.6	-3.7	-9.5	4.1%	-0.5	4.8
COc1ccc(C2NC(=O)NC(C)=C2C(=O)OC2CCCCC2)cc1 (configuration not stated)	-3.2	-1.4	7.2	5.6%	0.1	-9.3
CCOc1ccc(-n2ccnc(SCC(=O)Nc3ccc(CC)cc3)c2=O)cc1	12.3	5.2	-2.5	2.6%	0.8	-3.8
CNC(=S)N1CCC(Cc2ccccc2)CC1	-3.1	7.6	-9.3	0.9%	-0.9	8.1
COc1cccc(CCNC(=O)C2CCC(=O)N(Cc3cccc(OC)c3)C2)c1 (configuration not stated)	4.6	0.7	-1.6	-0.5%	-0.8	-4.4
COc1ccc(/C=C/C(=O)c2c(C)cc(C)[nH]c2=O)c2ccccc12	4.8	7.0	-3.6	3.1%	0.6	-8.4
Cc1cccc(C)c1-n1nnnc1C1(C)CCC(=O)N1CCOc1ccccc1 (configuration not stated)	.	-4.4	.	0.6%	-0.3	.
Cc1ccc(C)c(NS(=O)(=O)c2cc(C(=O)NCC3CCCO3)ccc2C)c1 (configuration not stated)	-4.0	30.7	-13.4	-0.3%	0.2	-19.3
CCOC(=O)Cn1nnc(-c2cc(OC)c(OC)c(OC)c2)n1	-1.8	-6.0	-20.8	1.5%	-0.7	-5.0
COc1ccc(NC(=O)CCCS(=O)(=O)c2nc(-c3ccc(OC)c(OC)c3)cc(C(F)(F)F)n2)cc1OC	.	.	16.0	6.4%	2.5	.
COc1ccc(C(=O)Cn2c3ccccc3n3nc(CCC(=O)O)c(=O)nc23)cc1OC	0.2	-1.7	-7.7	-4.7%[38.3 µM]	0.1	3.6
Cc1ccc(SCC2=NN(c3nc(C)cc(C)n3)C(=O)C2)cc1	-4.9	-0.3	-22.5	-0.8%	1.0	-8.6

Screens: PubChem BioAssay, National Center for Advancing Translational Sciences (NCATS)
